HPGD inh: inhibitors of human 15-hydroxyprostaglandin dehydrogenase (HPGD); P15428; purified HPGD, NADH fluorescence kinetic, PGE2 substrate; Potency, µM, without a hit: top-dose activity change, negative = inhibition, actives largely listed as inhibitors; 150,000 compounds, 4.3% hits; AID 894; active = well fitted inhibition curve with a large enough effect (not every such curve was filed as active); inconclusive = small, poorly fitted or top-dose-only effect, or another doubt; inactive = no such curve, though single readings can be large or run the other way;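 also: top concentration of the series not given in the record; plate controls included wells without enzyme; inactives centre near -10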
Target sequence (P15428 whole entry, looked up): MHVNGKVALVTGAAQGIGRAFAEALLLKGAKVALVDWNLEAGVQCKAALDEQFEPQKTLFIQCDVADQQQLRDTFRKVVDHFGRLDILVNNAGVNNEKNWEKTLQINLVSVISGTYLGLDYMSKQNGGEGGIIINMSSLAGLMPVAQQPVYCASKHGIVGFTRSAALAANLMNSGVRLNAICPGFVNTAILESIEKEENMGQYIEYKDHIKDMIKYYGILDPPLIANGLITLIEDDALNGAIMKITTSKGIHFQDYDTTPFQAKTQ
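NADH formation kinetics: reaction with 30 uM PGE2 and 1 mM NAD+ (final), 20 nM enzyme, Tris-HCl pH 8 with Tween 20, after 15 min compound preincubation at room temperature. Fluorescence change, last versus first of five reads.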
* marks the source's active call; other numbers are inactive results; i = inactive; ? = inconclusive. % is scaled to controls: 0 for no effect and ±100 for the full control effect; potency is read from the fitted curve at half-maximal effect. The list is partial; count on the stated rates, not on these rows.

HPGD inh	mol
?	CC(=O)Nc1ccc(Cc2ccc3[nH]c(=O)cc(C)c3c2)cc1
-18%	CSc1sc(C(=O)O)c2c1C(=O)CCC2
-13%	CC(C)c1ccc(C(=O)NC2=NCCS2)cc1
-11%	COC(=O)C(NNc1ccc(F)cc1)(NC(=O)c1ccccc1)C(F)(F)F (stereo unspecified)
-4%	O=C(CSc1nnc(C2CC2)n1Cc1ccccc1)NCc1ccccc1
32µM*	Cc1ccc(NC(=O)CN2C(=O)S/C(=C/c3ccc(-c4cc(C(=O)O)ccc4C)o3)C2=O)cc1C
-15%	CN(C)c1c([N+](=O)[O-])ncn1C
-9%	CCOC(=O)c1cc2sccc2n1CC(=O)N1CCN(C(=O)c2ccco2)CC1
-19%	CC(C)Cc1nnc(NS(C)(=O)=O)s1
-22%	O=S(=O)(NCC(c1ccco1)N1CCN(c2ccc(F)cc2)CC1)c1ccc(F)cc1 (stereo unspecified)
-14%	Cc1ccc2c(CN3CCC(C)CC3)cc(=O)oc2c1
-6%	O=C(CCN1CCCCCC1)Nc1ccc(F)cc1
-11%	COc1ccc(N2CCN(C(c3cccs3)c3nnnn3C3CCCC3)CC2)cc1 (stereo unspecified)
-15%	O=C(c1nc(-c2ccccc2)n(-c2ccccc2)n1)N1CCCCCC1
-6%	CCc1nc(OCCN(C)C)c2oc3ccccc3c2n1
-11%	Cc1ccc(/C=C/C(=O)Nc2nc3ccccc3[nH]2)cc1
-1%	Cc1ccc(NCC(=O)NNC2=NCCC2)c(C)c1
-21%	O=C(N/N=C/c1cccc([N+](=O)[O-])c1)c1cc(-c2ccc3c4c(cccc24)CC3)n[nH]1
-14%	CCOC(=O)C1=C(c2ccccc2)OC(N)=C(C#N)C1c1ccc(Br)s1 (stereo unspecified)
-21%	O=C(CSc1ccc(F)cc1)N1CCC(c2nc3ccccc3s2)CC1
-8%	COC(=O)c1ccc(NC(=O)CC2C(=O)N(c3ccc(C)cc3)C(=O)N2CC(C)C)cc1 (stereo unspecified)
2%	O=C(CNC(=S)NC(=O)c1ccc(Br)o1)c1ccccc1
-4%	O=C(c1cc2ccccc2[nH]1)N1CCOCC1
-8%	CCC(C(=O)c1ccc(O)cc1)c1ccccc1 (stereo unspecified)
-15%	CCOC(=O)c1ccc(N2C(=O)CC(N3CCC(Nc4ccc(F)cc4)CC3)C2=O)cc1 (stereo unspecified)
-8%	CCOc1ccccc1N(CC(=O)NC(C)(C)C)C(=O)c1ccc(CN2CCOCC2)o1
?	Cc1nn2c(N3CCN(C(=O)c4ccco4)CC3)cc(C(C)(C)C)nc2c1-c1ccccc1
-12%	S=C1NCCOCCOCCOCCOCCNC(=S)NCCOCCOCCOCCOCCN1
-10%	C=CCNC(=O)Cn1nc(-c2ccccc2)ccc1=O
0%	Cc1ccc(N=Cc2sccc2C)cc1C

Structures shown so far that have a halogen, in the order listed:
HPGD inh	mol
-11%	COC(=O)C(NNc1ccc(F)cc1)(NC(=O)c1ccccc1)C(F)(F)F (stereo unspecified)
-22%	O=S(=O)(NCC(c1ccco1)N1CCN(c2ccc(F)cc2)CC1)c1ccc(F)cc1 (stereo unspecified)
-6%	O=C(CCN1CCCCCC1)Nc1ccc(F)cc1
-14%	CCOC(=O)C1=C(c2ccccc2)OC(N)=C(C#N)C1c1ccc(Br)s1 (stereo unspecified)
-21%	O=C(CSc1ccc(F)cc1)N1CCC(c2nc3ccccc3s2)CC1
2%	O=C(CNC(=S)NC(=O)c1ccc(Br)o1)c1ccccc1
-15%	CCOC(=O)c1ccc(N2C(=O)CC(N3CCC(Nc4ccc(F)cc4)CC3)C2=O)cc1 (stereo unspecified)

Additional structures follow.
HPGD inh	mol
-14%	Cc1ccccc1NC(=O)CC(O)(C(F)(F)F)C(F)(F)F
?	Nc1ccccc1C(=O)NCc1ccc(Cl)cc1
-20%	Nc1cc(-c2ccccc2)nn1S(=O)(=O)c1ccc(Br)cc1
-5%	O=[N+]([O-])c1cc(-c2cnc3ccccc3n2)ccc1Oc1ccc(Br)cc1
-11%	O=C(CSc1cccc[n+]1[O-])Nc1cc(S(=O)(=O)N2CCOCC2)ccc1Cl
-12%	Cc1cs/c(=N\N=C\c2ccccc2)n1Cc1ccco1
-24%	Cc1c(C(=O)NCC2COc3ccccc3O2)oc2ccc(S(=O)(=O)N(C)C3CCCCC3)cc12 (stereo unspecified)
16µM*	O=C(O)c1ccc(CSc2nc3ccc(N4C(=O)C5C6C=CC(C6)C5C4=O)cc3s2)cc1 (stereo unspecified)
-4%	CCOC(=O)N1CCC(NC(=O)C2CCC(CNS(=O)(=O)c3ccc(OC)cc3)CC2)CC1 (stereo unspecified)
-2%	COCCn1ccc(O)c(Cc2ccccc2)c1=O
-2%	CCC(=O)NNC(=O)CCC(=O)Nc1ccccc1
-14%	O=C(CSc1nnc(-c2cccc(Cl)c2)o1)Nc1ccc2c(c1)OCCO2
0%	Fc1ccccc1OCCCCn1cncn1
-17%	O=C(CN1C(=O)C2C3C=CC(C3)C2C1=O)NCCC1=CCCCC1 (stereo unspecified)
-12%	CCOC(=O)C1=C(c2ccccc2)OC(N)=C(C#N)C1c1ccc(Cl)s1 (stereo unspecified)
-5%	COc1ccc(-c2csc(N(CCCN(C)C)C(=O)c3cccs3)n2)cc1
?	C/C(N)=C(/C#N)C(=O)CSc1n[nH]c(-c2ccccc2Br)n1
-5%	N#CCSc1nnc(COc2cccc3ccccc23)n1-c1cccc(Cl)c1
-15%	O=C(NCc1ccc(Cl)c(Cl)c1)c1ccco1
-3%	Nc1cc(-c2ccc(Br)cc2)nn1S(=O)(=O)c1ccccc1
-14%	CCOC(=O)C(/C=C(\C#N)C(=O)OCC)=C(/N)N1CCN(c2c(C)cccc2C)CC1
-1%	CCOCc1nc(C)c(Cl)c(NS(=O)(=O)c2ccc(N)cc2)n1
0%	C=CCn1c(SCC(=O)Nc2c(C)cccc2C)nnc1-c1ccncc1
-15%	Cc1nn(C(=O)c2cc3sccc3[nH]2)c(C)c1C
-10%	COc1ccc2c(c1)[nH]c1c(=O)n(Cc3ccco3)cnc12
-2%	Cc1c(C2N3CC4(C)CN2CC(C)(C3)C4=O)c2ccccc2n1C (stereo unspecified)
-26%	Cc1c(C(=O)OCC(C)C)[nH]c2c1C(=O)CC(c1ccco1)C2 (stereo unspecified)
?	CC(C)c1ccc(/C=N/n2nnnc2Nc2ccccc2)cc1
?	CN(C)c1ccc(/C=C2\C(=O)Nc3ccccc32)cc1
-11%	Cc1cccc(C)c1OCC(=O)N/N=C/c1ccncc1
-30%	Cc1cc2[nH]c(=O)c3ccccc3n2n1
-2%	O=C(CSCc1ccc(Cl)cc1)Nc1ccc2c(c1)OCO2
-8%	CCOc1ccc(OCC)c(NC(=O)Cn2cccc2)c1
2%	O=c1ccc2cc(S(=O)(=O)N3CCN(c4cc(Cl)ccc4Cl)CC3)ccc2o1
-5%	Cn1c(-c2ccc(F)cc2)cnc1SCC(=O)N1CCCc2ccccc21
9%	CCNc1nc(NCC)nc(N(C)N)n1
-6%	Cc1nnc(NC(=O)C(C)Sc2nncn2C)s1 (stereo unspecified)
-1%	CCN(CC)CCOC(=O)C1(c2ccccc2)CCOCC1
-6%	CCCN(CCO)Cc1cccc(Br)c1
-12%	Cn1c(SCc2nc(-c3ccc(Cl)cc3)no2)nnc1-c1ccco1
-25%	CC1(C)CC(=O)C2=C(C1)OC(N)=C(C#N)C2C1C=CCCC1 (stereo unspecified)
-16%	O=C(NCc1ccco1)c1cccc2c1C(=O)N(C1CCCCC1)C2
-2%	C#C[C@]1(O)CC[C@@H]2[C@H]3CCC4=Cc5oncc5C[C@]4(C)[C@@H]3CC[C@@]21C
-11%	Cn1ncc2c(NNC(=O)c3ccc(Cl)cc3Cl)ncnc21
?	COc1ccccc1[C@@H]1C(c2ccccc2)=NN(c2ccccc2)[C@H]1C(=O)N1CCOC1=O
-8%	CCN(Cc1ccccc1)c1ccc(N=Nc2nn(C)c(C)c2[N+](=O)[O-])cc1
-17%	CC1=C/C(=C(/c2ccc(O)c(C)c2)c2ccccc2C(=O)O)C=CC1=O
4%	O=c1cc(-c2ccc(Cl)c(Cl)c2)[nH][nH]1
-12%	COC(=O)Cc1ccc(NC(=S)N2CCCC(C)C2)cc1 (stereo unspecified)
?	CCC1CC2(C)NC(=O)c3c(sc4c3CC(C)(C)OC4)N2C1=O (stereo unspecified)
-27%	COc1ccc(CN2C(=O)c3cccnc3C2Nc2cc(Cl)c(OC)cc2OC)cc1 (stereo unspecified)
-8%	CCOC(=O)c1ccc(Cl)c(NC(=O)c2ccc(-c3ccccc3)cc2)c1
-25%	CCN(C(=O)CN1CCCCC1)C1(C)C(=O)c2ccccc2C1=O
-6%	O=C1C2CC=CCC2C(=O)N1c1ncn[nH]1 (stereo unspecified)
-7%	COC(CN(C(=O)CCl)C(C(=O)NC1CCCCC1)c1ccc(Cl)cc1)OC (stereo unspecified)
-1%	OC(COc1ccccc1)CN1CCN(c2ncccn2)CC1 (stereo unspecified)
-23%	O=C(NCc1ccccc1)c1cc2nc(C3CC3)cc(C(F)(F)F)n2n1
-12%	CCCCn1c(N)nc2ccccc21
-10%	OCC1NCC(O)C(O)C1O (stereo unspecified)
-14%	COc1ccc(-c2csc(NC(=O)c3ccc(S(=O)(=O)N4CCc5ccccc5C4)cc3)n2)cc1

Additional compounds.
HPGD inh	mol
-17%	CCN1CCCC1CN(Cc1cc2cc(C)cc(C)c2[nH]c1=O)C(=O)Nc1ccccc1OC (stereo unspecified)
-7%	CCCc1nnc(SCC(=O)N2CCCCC2C)n1CC (stereo unspecified)
1%	c1ccc(-c2ccccc2OCCN2CCCCC2)cc1
-9%	CCCN(CCC(=O)Nc1ccccc1F)CC1CC1
3%	Cc1ccc(N(C(=O)c2ccc(S(=O)(=O)N3CCOCC3)cc2)C2C=CS(=O)(=O)C2)cc1 (stereo unspecified)
-9%	O=C(CN1CCN(Cc2ccc(F)cc2Cl)C1=O)NCCc1ccccc1
-14%	C/C(=N/NC(=O)c1ccccn1)c1ccco1
0%	C=CCn1c(SCn2nnc3ccccc3c2=O)nnc1C1CCCCC1
-6%	COC(=O)C1=C(C)[C@H](O)[C@@H](C)[C@](C)(c2cc(OC)c(C)c(OC)c2COc2ccccc2)O1
?	N#CSCC(=O)c1cccc2ccccc12
-12%	Nc1ccc(Br)c2c1C(=O)c1ccccc1C2=O
?	COC(=O)c1ccc2c(=O)n3c(nc2c1)SCC(c1ccccc1)=N3
-19%	S=C(NCCc1ccccc1)N/N=C/c1c(Cl)cccc1Cl
?	CCCCn1cnc2sc(-c3ccccc3)cc2c1=O
i	COc1ccccc1N(CC(O)Cn1c2ccccc2c2ccccc21)S(=O)(=O)c1ccccc1 (stereo unspecified)
-8%	CC1(C)NC(=O)N(CCCCOc2ccc3c(c2)CCC3)C1=O
-13%	Cc1occc1-c1nnc(SCC(=O)NCc2ccco2)n1CC(C)C
-19%	CC(C)(c1ccccc1)c1ccc(OCCn2cnc3ccccc3c2=O)cc1
-9%	CC(=O)Nc1cc2c(cc1C(=O)c1ccc(C)cc1)OCCO2
?	O=C(O)COc1cccc2nsnc12
-15%	COc1ccc(-n2nnnc2SCC(=O)N2C(C)CCCC2C)c(OC)c1 (stereo unspecified)
-8%	O=C(NC1CCCCC1)C(c1ccco1)N(Cc1ccco1)C(=O)c1ccco1 (stereo unspecified)
-8%	Cc1ccc2c(Cl)c(C(=O)Nc3ccc4c(c3)OCO4)sc2c1
-11%	COc1ccc(C(CNc2ccc(S(=O)(=O)N3CCCC3)cc2[N+](=O)[O-])N2CCCC2)cc1 (stereo unspecified)
?	COc1cc(O)oc1C=Nc1ccc(Cl)cc1Cl
-9%	N#CCCNCC1(c2ccccc2)CCCC1
-16%	CC(=O)Nc1sc(/C(C#N)=C\c2cccc(Cl)c2)nc1-c1ccc(C)cc1
-29%	Cc1cc(N/N=C\c2ccccc2)nc(-c2ccccc2O)n1
-12%	O=C(NCc1ccncc1)Nc1ccc(Cl)cc1Cl
-9%	COCC(=O)N1CCC2(CC1)CN(C(=O)Nc1cccc(F)c1)C2
16µM*	CCOC(=O)c1cnc(SC)nc1Sc1ccccc1Cl
-8%	CC(C)NC(=O)c1ccccc1NC(=O)CS(=O)(=O)Cc1ccccc1
0%	O=C(NCC(c1cccs1)N1CCOCC1)c1ccc(Br)o1 (stereo unspecified)
-17%	COc1cc(S(=O)(=O)N2CCOCC2)ccc1NC(=O)COC(=O)C12CC3CC(CC(C3)C1)C2
-3%	Cc1nc2sc(C(c3ccc(F)cc3)N3CCOCC3)c(O)n2n1 (stereo unspecified)
-14%	COc1ccc(C(=O)OCc2cc3cccc(C)c3[nH]c2=O)cc1
-12%	COc1cc2c(cc1OC)CN(C(=O)COc1ccc(C)c(C)c1)CC2
-8%	CCOC(=O)c1c(-c2ccccc2)nnn1-c1nc(OC)nc(N2CCOCC2)n1
-17%	Clc1ccc(OCCCn2ccnc2)c(Br)c1
-22%	Clc1cccc(NCc2nnc(SCc3ccccc3)o2)c1
-12%	CCCCOC(=O)c1ccc(OC(=O)c2cccnc2)cc1
0%	CCCCCn1c(CNC(=O)CC)nc2ccccc21
22µM*	CC(=O)Oc1oc(-c2ccccc2)nc1/C=N/c1ccccn1
-17%	COCc1[nH][nH]c(=O)c1C=Nc1ccccc1
?	O=C(NC1=NCCS1)c1csc2ccccc12

Structures listed above marked active in HPGD inh:
HPGD inh	mol
32µM*	Cc1ccc(NC(=O)CN2C(=O)S/C(=C/c3ccc(-c4cc(C(=O)O)ccc4C)o3)C2=O)cc1C
16µM*	O=C(O)c1ccc(CSc2nc3ccc(N4C(=O)C5C6C=CC(C6)C5C4=O)cc3s2)cc1 (stereo unspecified)
16µM*	CCOC(=O)c1cnc(SC)nc1Sc1ccccc1Cl
22µM*	CC(=O)Oc1oc(-c2ccccc2)nc1/C=N/c1ccccn1

Compound activity as filed in PubChem.
